# BJeLR viability: kills HRASV12-expressing BJeLR cells | 300,000 tested, 0.17% active | inhibition, % (test concentration not listed) | BJeLR (HRASV12) viability, CellTiter-Glo ATP luminescence, 48 h; reference of the scale not given here | AID 1554;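 active = replicate mean above 50%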;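 note: 50 nL library stock added to about 25 µL; numbers are from one replicate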
# Sa RN4220 lethal: S. aureus RN4220 growth inhibition | 330,000 tested, 0.33% active | OD600, 16 h | AID 1259311 | inhibition, % (no concentration beside the values);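 active = z-score of -3 or lower and OD600 up to 0.18 on both plates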;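 note: plate controls were untreated cells for no effect and reference antibiotic for full effect; stock transfer was 100 nL into about 80 µL; one replicate is shown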
# Mtb hypoxia inh: Mtb hypoxia fluorescent reporter inhibition; AID 1159583; fluorescence inhibition, % (no concentration beside the values); 300,000 tested, 0.1% active; M. tuberculosis hypoxia-regulated fluorescent reporter, fluorescence;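 active = 35 to 45% if threefold the growth effect, above 45% if 1.5-fold the growth effect; inactive = the rest, general growth blockers included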;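 note: wells of about 50 µL received 100 nL stock; 0% = vehicle wells and 100% = reference inhibitor wells; whole bacteria with a GFP reporter of the hypoxia response; strong numbers were not always called active; many hits fall short of the cut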
# ugtP null kill: compounds lethal to S. aureus RN4220 ugtP deletion mutant. AID 1259309. 330,000 tested, 0.54% active. growth inhibition, % (concentration not given with the values). OD600 growth, 16 h; some inactives read as strong as hits;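 active = z-score under -3 and OD600 up to 0.15 on both plates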;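 note: plate controls were untreated wells for no effect and antibiotic for full effect; wells of about 80 µL received 100 nL stock; the first replicate is given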
# Autofluor counter: counter-screen for toxin protease inhibitors: compound fluorescence; compound autofluorescence counterscreen, microsphere flow cytometry; stronger effect = higher value; fluorescence intensity (concentration not given with the values); 360,000 tested, 3.1% active; AID 624483;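 active = at least 3 SD above the mean of all compounds, about 16000 in these data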;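 note: 100 nL of 1 mM stock went into each well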
# PrP 5UTR inh: suppresses PrP 5' UTR mRNA reporter expression; cell-based PrP 5' UTR mRNA reporter, plate reader; inhibition, % (test concentration not listed); 340,000 tested, 0.35% active; AID 488862;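 active = every replicate at 50% or more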;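 note: 0 = median of the neutral control wells; tested in H4 reporter cells; numbers are from one replicate; inactives centre near -14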
# Mtb hypoxia inh growth: further read-out of Mtb hypoxia inh, marked with its call; growth inhibition, %; measured here: M. tuberculosis growth (absorbance);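 0% = vehicle and 100% = reference antibiotic; read after six days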
# The depositor's hits bear a star; / = not tested or not shown. An unsorted share of the library, and some 4% of all compounds hit somewhere here.
Molecule	BJeLR viability	Sa RN4220 lethal	Mtb hypoxia inh	Mtb hypoxia inh growth	ugtP null kill	Autofluor counter	PrP 5UTR inh
CCOc1ccc(N2CC(=O)N(c3ccc(OCC)cc3)CC2=O)cc1	-2	1.9	9	13	-3	22131*	0
CC1Cc2cc(S(=O)(=O)N3CCN(C)CC3)ccc2N1C(=O)C1CC1 (stereo not given)	22	-2.0	4	7	2	4165	4
O=C1OC(Oc2ccc(Br)cc2)(c2ccccc2)c2ccccc21 (stereo not given)	/	-2.4	25	11	20	3989	-35
COc1ccc(CCNC(=O)CN2C(=O)CSc3ccc(S(=O)(=O)N4CCOCC4)cc32)cc1OC	-9	4.8	-7	-6	10	5483	-8
CCOc1cc(C(=O)NN=C/C(Br)=C/c2ccccc2)cc(OCC)c1OCC	/	3.8	2	-11	-6	/	/
O=C(COC(=O)CNC(=O)c1ccc(Cl)cc1Cl)NC1CC1	/	-4.1	7	3	-5	2879	-24
CCOC(=O)c1ccc(NC(=O)COC(=O)Cc2csc(-c3ccccc3)n2)cc1	2	-0.1	/	/	9	2183	-12
Cc1ccccc1C(=O)N(CC(=O)Nc1sc(C)c(C)c1C(N)=O)C1CCCC1	3	-1.6	-8	-3	7	6043	-8
Cc1cc(O)c(/C=N/Nc2ccccc2)c(=O)o1	-6	/	/	/	/	5066	0
CC(C)CN1C=C2C(=O)C(C)(OC(=O)CCc3ccccc3)C(=O)C=C2C=C1c1ccc(C#N)cc1 (stereo not given)	-2	4.3	10	9	-6	3041	-13
CSc1ccc(Cl)c(C(=O)NCCOc2ccccc2)c1	9	26	-4	-9	20	2874	-37
FC(F)(F)c1nnc2ccc(N3CCOCC3)nn12	5	4.0	14	12	5	3909	-11
N#Cc1ccc(S(=O)(=O)NC[C@H]2O[C@@H](n3cnc4c(N)ncnc43)[C@H](O)[C@@H]2O)cc1	/	3.4	-13	-3	11	3982	-7
Cc1cc(C(=O)N/N=C/c2ccc([N+](=O)[O-])o2)c(C)o1	14	/	/	/	/	3583	-17
CN(C(=O)COc1ncnc2sccc12)c1ccccc1	/	-0.8	-7	11	1	4153	-14
CCOc1ccc(OCCC(=O)N(CC)CC(=O)NCc2ccc(Cl)cc2)cc1	7	3.4	2	9	3	5759	-24
N#CC1=C(N)OC2=C(C(=O)CCC2)C1c1cc2c(cc1Cl)OCO2 (stereo not given)	-5	4.3	7	9	2	3394	-22
COc1ccc(NC(=O)c2ccc3c(=O)n(-c4ccc(OC)cc4OC)c(=S)[nH]c3c2)c(OC)c1	-6	1.9	-2	10	-1	3828	-71
COc1cc(Cl)c(C)cc1NC(=O)Cn1c(NCCO)nc2ccccc21	-2	-2.8	0	-16	-6	5365	-24
Oc1ccc(-c2n[nH]c(=S)n2-c2ccc3c(c2)OCCO3)c(O)c1	2	-1.0	10	-7	8	2494	-2
O=C(Nc1ccccc1)C1=CC(c2csc3ccccc23)CC(OCCCCO)O1 (stereo not given)	/	-0.4	-9	-14	-3	/	/
Cc1cccc(OCc2ccc(C(=O)Nc3ccc(F)cc3)cc2)c1	-1	2.7	7	-3	1	2338	-34
CC(=O)Nc1ccc(S(=O)(=O)N2CCC(NC(C)=O)(c3cccc(F)c3)CC2)cc1	2	2.2	/	/	1	5091	-9
NC(=O)C1(N2CCCCC2)CCN(S(=O)(=O)c2ccc(Cl)s2)CC1	5	1.9	1	5	-5	4196	-11
CC(Oc1ccc(Cl)cc1)C(=O)Nc1ncccn1 (stereo not given)	-15	9.0	9	10	3	6777	-29
O=C(NCCc1ccc(Cl)cc1)c1ccc2[nH]c(=O)c(=O)[nH]c2c1	4	1.6	8	6	-3	5701	-10
Cc1ccc(NC2=C(Cl)C(=O)c3ccccc3C2=O)cc1	7	18	12	17	0	10517	-60
CC(NC(=O)CN1c2cccc3cccc(c23)S1(=O)=O)c1ccc(S(N)(=O)=O)cc1 (stereo not given)	-8	1.5	11	-4	-2	5997	-8
O=C(c1cnn(-c2ccccc2)c1-n1cccc1)N1CCN(C2CCCCC2)CC1	5	-9.1	17	9	-2	5950	-21
CCN(CC(=O)Nc1ccc(OC)cc1)CC(=O)N1CC(=O)Nc2ccccc21	/	-0.5	6	7	2	7234	-20
Nc1ncn(C2OC(CO)C(O)C2O)c(=O)n1 (stereo not given)	/	11	10	1	9	/	/
COc1ccc(CCN2CC(C(=O)NCC(c3ccccc3)N(C)C)CC2=O)cc1OC (stereo not given)	/	-2.9	-4	-15	-5	3331	-8
Cc1cc(C(=O)Nc2ccccc2C(=O)O)oc1C	-1	8.8	2	5	7	3654	-26
COCCN(C(=O)Nc1ccccc1OC)c1nc2ccccc2s1	25	-4.7	9	-3	-8	3979	-19
CCN1C(=O)C(CC(=O)NCCc2ccccc2)N(NC(=O)c2cccnc2)C1=S (stereo not given)	5	3.4	5	15	2	4193	-21
C/C(=N\Nc1ccccc1)c1c(O)[nH]c(=O)[nH]c1=O	-11	5.7	5	11	9	6062	-3
O=C1[C@H]2[C@@H](c3ccc(Cl)cc3)N3C(=O)N(c4cccc(Cl)c4)C(=O)[C@@]3(Cc3ccccc3)[C@H]2C(=O)N1C1CCCCC1	-9	/	/	/	/	2982	-32
Cc1ccc(C)c2[nH]c(=O)c(C(c3nnnn3CCc3ccccc3)N3CCOCC3)cc12 (stereo not given)	5	9.5	8	7	-5	2447	-5
CCOC(=O)CN(Cc1sccc1C)C(=O)Nc1ccc(OC)cc1OC	2	2.0	5	10	8	2364	-25
Cc1cc(NC(=O)NCc2ccccc2)c(=O)n(Cc2ccc(F)cc2)c1	-6	3.7	7	1	-2	/	-22
COc1ccc(-n2c(Cc3cccn3C)nnc2SCC(=O)Nc2ccccc2OC)cc1	-5	-3.8	/	/	-10	4213	-5
Cn1c(SCC(=O)Nc2ccc3nc(SCC(=O)N4CCCC4)sc3c2)nnc1-c1ccc(N)cc1	/	25	-5	-4	4	2361	-22
Cc1cc(C)nc(NC(=O)/C=C/c2cccs2)c1	-5	1.4	25	16	4	4081	-44
CCn1c(=O)cc(N2CCCCC2)[nH]c1=O	-1	/	/	/	/	3166	-21
O=C(CCCn1c(SCC(=O)c2ccccc2)nc2ccccc2c1=O)NCC1CCCO1 (stereo not given)	-1	8.0	7	12	-6	23845*	-20
COc1ccc(CCN(C)C(=O)c2ccc(S(=O)(=O)NCc3ccco3)cc2)cc1OC	10	2.7	3	12	13	1974	-9
COc1ccc(CNC(=O)COC(=O)c2cc3ccccc3cc2O)cc1OC	/	2.4	0	-21	-5	3559	-12
CCN(CC)C(CNC(=O)CSc1nnnn1-c1ccc(C)c(C)c1)c1ccco1 (stereo not given)	/	1.3	4	2	7	6604	-10
Cc1ccc2oc(Nc3nc(C)c(C)c(C)n3)nc2c1	-1	0.9	1	1	4	5858	-42
COc1cc(NC(=O)CN2CC(c3ccccc3)CC2=O)cc(OC)c1 (stereo not given)	2	-0.1	/	/	9	5866	-21
CCOc1ccc(CCNC(=O)c2ccc3nc(CC)c(CC)nc3c2)cc1	-2	-1.5	3	-7	3	4419	-8
CCOC(=O)CON1C(=O)C(=O)N(OCC(=O)OCC)[C@H]2CCCC[C@H]21	-3	2.8	9	16	4	3963	-21
Cc1cc(=O)[nH]c(=O)n1Cc1ccccc1	-12	6.6	15	9	9	3298	-6
CCOc1cc(CN2CCC(n3nccc3NC(=O)C3CC3)CC2)ccc1O	7	3.9	1	1	-1	5802	-11
COc1ccc(-c2csc(NC(C)c3nc4cc(Cl)c(N5CCCCC5)cc4n3CCOCCO)n2)cc1 (stereo not given)	1	-3.4	-11	1	-26	4035	-20
CCn1c2ccccc2c2cc(NC(=O)COC(=O)c3cc(Cl)c(N)cc3OC)ccc21	-6	-4.3	11	2	-7	4566	-32
Cc1cccc(OCC(=O)Nc2ccc(S(=O)(=O)Nc3onc(C)c3C)cc2)c1C	10	0.6	-4	3	-3	5581	-26
O=C(N/N=C/c1ccc(O)c(O)c1)c1cccc(S(=O)(=O)N2CCCCC2)c1	-7	/	/	/	/	3873	-15
COc1ccc(C(CNC(=O)c2oc3cc(Br)ccc3c2C)N2CCCCC2)cc1 (stereo not given)	-1	2.7	-3	0	-3	6050	5
CCCC(c1nnnn1Cc1cccs1)N1CCN(c2nc3ccccc3s2)CC1 (stereo not given)	-13	0.6	/	/	5	4771	-7

# Eleven structures from above, sorted by number of heavy atoms, descending:
Molecule	BJeLR viability	Sa RN4220 lethal	Mtb hypoxia inh	Mtb hypoxia inh growth	ugtP null kill	Autofluor counter	PrP 5UTR inh
COc1ccc(-c2csc(NC(C)c3nc4cc(Cl)c(N5CCCCC5)cc4n3CCOCCO)n2)cc1 (stereo not given)	1	-3.4	-11	1	-26	4035	-20
Cn1c(SCC(=O)Nc2ccc3nc(SCC(=O)N4CCCC4)sc3c2)nnc1-c1ccc(N)cc1	/	25	-5	-4	4	2361	-22
COc1ccc(-n2c(Cc3cccn3C)nnc2SCC(=O)Nc2ccccc2OC)cc1	-5	-3.8	/	/	-10	4213	-5
CCn1c2ccccc2c2cc(NC(=O)COC(=O)c3cc(Cl)c(N)cc3OC)ccc21	-6	-4.3	11	2	-7	4566	-32
COc1ccc(C(CNC(=O)c2oc3cc(Br)ccc3c2C)N2CCCCC2)cc1 (stereo not given)	-1	2.7	-3	0	-3	6050	5
COc1ccc(CNC(=O)COC(=O)c2cc3ccccc3cc2O)cc1OC	/	2.4	0	-21	-5	3559	-12
CCOc1cc(CN2CCC(n3nccc3NC(=O)C3CC3)CC2)ccc1O	7	3.9	1	1	-1	5802	-11
COc1cc(NC(=O)CN2CC(c3ccccc3)CC2=O)cc(OC)c1 (stereo not given)	2	-0.1	/	/	9	5866	-21
Cc1ccc2oc(Nc3nc(C)c(C)c(C)n3)nc2c1	-1	0.9	1	1	4	5858	-42
Cc1cc(C)nc(NC(=O)/C=C/c2cccs2)c1	-5	1.4	25	16	4	4081	-44
Cc1cc(=O)[nH]c(=O)n1Cc1ccccc1	-12	6.6	15	9	9	3298	-6

# (list continues)
Molecule	BJeLR viability	Sa RN4220 lethal	Mtb hypoxia inh	Mtb hypoxia inh growth	ugtP null kill	Autofluor counter	PrP 5UTR inh
CCn1cc([C@@H]2C[C@H]3CN(Cc4cccc(Cl)c4)C(=O)[C@]34CCCN24)c(C)n1	-6	-1.5	-11	-9	-3	4038	-19
O=C(/C=C/c1ccccc1Cl)NCCN1CCOCC1	8	-0.9	-3	5	2	12557	-1
COc1ccc(C)cc1NC(=O)C1CCCN(S(=O)(=O)c2cccc3nonc23)C1 (stereo not given)	9	0.4	3	0	-7	2469	-17
O=C(CC1C(=O)NCCN1Cc1cccc(C(F)(F)F)c1)NC1CCCCCC1 (stereo not given)	-3	4.6	1	-9	-1	6070	-50
CCn1c(CSc2nc3ccccc3s2)nnc1SCC(=O)c1ccc(Cl)cc1	3	-3.9	/	/	-11	2258	-3
CN(C)S(=O)(=O)c1ccc(Cl)c(C(=O)OCC(=O)NNC(=O)c2cccs2)c1	/	0.2	5	3	0	3842	0
COc1ccc(CNC(=O)CCSCc2cccc(F)c2)cc1	17	-5.0	13	4	0	3576	-7
COc1ccc(OC)c(C=NNC(=O)CCCC(=O)Nc2cccc(Br)c2)c1	/	5.5	2	2	-2	/	/
CCNC(=S)Nc1cccc(F)c1C	4	2.5	5	-3	-1	4512	-13
COc1cc(-c2csc(C)n2)ccc1O	6	3.9	/	/	-1	5183	-6
CCC1(C(=O)OC)NC(c2ccco2)C2C(=O)N(c3ccccc3)C(=O)C21 (stereo not given)	-7	-1.2	3	-1	1	6665	1
CCOc1ccc(C(=O)COC(=O)CN2C(=O)NC3(CCCCC3C)C2=O)cc1 (stereo not given)	/	7.4	-2	-2	17	3146	-9
CC1=[N+]([O-])C(C)(C)C(C)N(O)C1=O (stereo not given)	8	-15	6	6	1	2315	-21
COc1cccc(/C=C(/C(=O)OCC(N)=O)c2ccccc2)c1	-5	9.8	12	5	16	3251	-24
CCOC(=O)c1csc(NC(=O)CSc2nnnn2CC)n1	3	3.9	/	/	4	4614	-6

# Screens from PubChem BioAssay.
